E coli growth = blocks Escherichia coli growth | OD600, 23 h; active compounds read low | OD600 absorbance (test concentration not listed) | 330,000 compounds, 0.21% hits;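 active = OD600 absorbance below the run mean of sample wells minus 3.6 SD, in any replicate, cut at about 0.56 in these data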;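 note: stock transfer was 300 nL into about 60 µL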
ALR H2O2 inh = human ALR oxidase inhibition via reduced H2O2. P55789. purified ALR, DTT oxidation, H2O2 HRP-luminol luminescence. inhibition, % (test concentration not listed). 290,000 compounds, 3.8% hits. AID 485317;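 active = mean and each replicate at 75% or more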;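 note: stock transfer was 7.5 nL into about 7.5 µL; 0% = neutral wells and 100% = wells with inactivated enzyme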
Target sequence (P55789 whole entry, looked up): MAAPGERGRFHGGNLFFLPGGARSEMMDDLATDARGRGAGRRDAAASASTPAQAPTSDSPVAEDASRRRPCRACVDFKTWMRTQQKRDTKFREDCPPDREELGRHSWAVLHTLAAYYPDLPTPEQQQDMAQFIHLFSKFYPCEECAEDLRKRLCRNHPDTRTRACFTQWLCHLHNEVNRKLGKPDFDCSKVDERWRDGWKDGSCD
LANA-H2B inh = blocks KSHV LANA binding to histone H2A/H2B. cell-free LANA-H2A/H2B peptide, fluorescence polarization. AID 2629. inhibition, % (no concentration beside the values). 320,000 compounds, 0.6% hits; in the data active = inhibition mostly above about 10%, no sharp cut-off; inactive = mostly below about 6.7%;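 note: stock transfer was 7.5 nL into about 10 µL; 0% = median of vehicle wells and 100% = median of positive control wells; one replicate is shown; the record names a cut of 25% in any replicate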
UCH37 DUB inh = human UCH37 deubiquitinating enzyme inhibition. 330,000 compounds, 0.33% hits. AID 588478. purified proteasome/UCH37, Ub-AMC cleavage fluorescence. inhibition, % (concentration not given with the values). Q9Y5K5;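 active = mean of two replicates above 20%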;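 note: 0% = compound-free wells with enzyme and 100% = wells lacking proteasome; stock transfer was 100 nL into about 20 µL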
Target sequence (Q9Y5K5 whole entry, looked up): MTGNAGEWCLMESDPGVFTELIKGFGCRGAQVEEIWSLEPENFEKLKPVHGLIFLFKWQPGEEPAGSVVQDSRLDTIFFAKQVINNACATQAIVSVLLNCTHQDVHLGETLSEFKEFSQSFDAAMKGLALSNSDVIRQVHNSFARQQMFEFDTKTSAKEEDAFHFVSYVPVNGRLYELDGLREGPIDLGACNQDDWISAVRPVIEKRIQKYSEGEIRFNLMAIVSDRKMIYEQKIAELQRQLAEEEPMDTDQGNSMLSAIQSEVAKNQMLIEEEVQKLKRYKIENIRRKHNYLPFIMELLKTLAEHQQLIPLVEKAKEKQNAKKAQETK
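Material: Human UCH37 enzyme supplied as purified proteasome complex | Schedule: 30 min preincubation with enzyme, 25 min cleavage at room temperature | Detection: AMC fluorescence 355/460 nm | Measure: % inhibition of Ub-AMC cleavage fluorescence | Controls: Wells without proteasome as full block, compound-free enzyme plus substrate as uninhibited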
HNF4A DNA FP = change in binding of human HNF4 alpha to DNA | P41235 | HNF4a-FITC DNA binding, fluorescence polarization, 1 h | activity change, % at 10 µM | AID 1224865 | 360,000 compounds, 0.3% hits; in the data active = activity change above about 30%, passing the limit was not always enough;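 note: controls were the assay level and a saturating level of protein; the project sought stronger binding though the title names inhibitors; some compounds called inactive have numbers as strong as hits; positive values seem to mean higher polarization but the record does not say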
FGF22 binding = binders of recombinant human FGF22 by thermal shift | Q9HCT0 | SYPRO orange fluorescence; percent of sucrose octasulfate shift, DMSO zero | calls only at 9.99 µM | 340,000 compounds, 1.5% hits | AID 651658;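 active = melting point raised past a set limit in the mean and every replicate; three in four hits are not shown here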
Target sequence (Q9HCT0 whole entry, looked up): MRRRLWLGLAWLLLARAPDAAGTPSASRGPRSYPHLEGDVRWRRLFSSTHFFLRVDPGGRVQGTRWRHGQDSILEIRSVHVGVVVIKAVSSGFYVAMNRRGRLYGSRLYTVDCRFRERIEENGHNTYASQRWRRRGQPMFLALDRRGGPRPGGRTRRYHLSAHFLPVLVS
Beta2AR agonist = activates human beta-2 adrenergic receptor causing internalization; P07550; Am2.2-beta2AR cells, FAP receptor internalization, flow cytometry; reference of the scale not given here; response, % (no concentration beside the values); 340,000 compounds, 0.43% hits; AID 504454;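 active = response above a set limit, near 3 SD of response in nonfluorescent compounds, cut at about 42% in these data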;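 note: stock transfer was 100 nL into about 11 µL; a reference agonist was the positive control; negative values mostly stem from fluorescent compounds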
* = called active by the depositor; i = inactive; . = not tested or not shown. The list is partial, so the mix of outcomes need not match the whole.

SMILES	E coli growth	ALR H2O2 inh	LANA-H2B inh	UCH37 DUB inh	HNF4A DNA FP	FGF22 binding	Beta2AR agonist
COCCNCC(=O)Nc1ccc(OC(F)(F)F)cc1	0.682	-3.5	3.0	2.5	-4.5	i	9.9
COc1cc(/C=C2/CC(C)OC2=O)c([N+](=O)[O-])cc1OC (centres undefined)	0.662	-23.7	2.4	5.9	2.5	i	8.5
CCCc1cc(=O)oc2cc(OCC(=O)NCC3CCC(C(=O)O)CC3)ccc12 (centres undefined)	0.702	0.7	-1.0	-16.6	4.0	i	2.5
CN1CCN(S(=O)(=O)c2ccc(Sc3nnnn3-c3ccccc3)c([N+](=O)[O-])c2)CC1	0.734	-17.8	-1.3	8.6	4.0	i	7.0
COc1ccc(C2(c3ccc(OC)cc3)NC(=O)N(CC(=O)N(C)c3ccccc3)C2=O)cc1	0.73	1.7	-2.7	0.8	2.1	i	1.9
COc1ccc(NC(=O)C2CCCN(S(=O)(=O)c3cccnc3)C2)cc1OC (centres undefined)	0.713	-4.4	2.3	0.8	-1.3	i	-4.0
CN1CCC(N(C)C(=O)c2cc(=O)c3ccccc3o2)CC1	0.703	-16.6	0.0	2.3	2.2	i	1.3
COc1ccc(NS(=O)(=O)c2cccc(C(=O)N3CCCCCCC3)c2)cc1	0.652	.	3.6	1.9	2.7	i	-4.3
O=C(Nc1cc(Cl)ccc1O)C1CC(c2ccccc2Cl)=NO1 (centres undefined)	0.624	-0.9	0.1	1.9	-0.1	i	4.3
O=C(Nc1cccc(C(=O)N2CCCC2)c1)c1ccccc1	0.703	-24.1	-2.0	5.7	1.6	.	-8.7
Cc1csc(=NC(=O)c2ccccc2)n1CCO	0.665	99.0*	-0.5	9.1	2.0	.	-2.0
CC(=O)c1cnc2cc(-c3ccc(Cl)cc3)nn2c1C	0.803	-7.3	-4.4	-63.6	2.6	.	-14.2
CCOC(=O)Cn1c(=O)oc2cc(S(=O)(=O)NC3CCCCC3)ccc21	0.787	-9.5	1.6	1.3	3.9	.	-2.3
Cc1csc(NC(=O)c2ccc(COc3ccccc3)o2)n1	0.655	0.6	4.2	3.5	0.0	i	4.0
C=CC[C@H](CC(=O)NCCO)C(=O)N[C@H](COC(=O)[C@@H](CC=C)Cc1ccc(F)cc1)C(C)(C)C	.	.	.	3.7	3.2	i	-3.6
CCCCc1c(O)nc(SCC(=O)NCC2CCCO2)[nH]c1=O (centres undefined)	0.764	17.6	4.3	6.1	-1.3	.	-2.9
Cc1ccccc1Cn1c([N+](=O)[O-])cnc1C	0.686	-4.3	-2.3	5.9	0.9	i	3.1
Nc1cc(N2CCCCC2)c(Cl)cc1[N+](=O)[O-]	0.649	-19.2	-3.6	4.1	4.3	.	-4.3
CCC1(c2ccccc2)NC(=O)N(CC(=O)NNC(=O)CCN2CCN(c3ccccc3)CC2)C1=O (centres undefined)	0.645	74.8	3.9	-1.1	1.2	i	-2.0
COc1ccccc1OCCC(=O)Nc1ccc2c(c1)OCO2	0.656	.	-4.3	0.7	1.1	i	-7.1
COc1cccc(C2/C(=C(/O)c3ccc4c(c3)CC(C)O4)C(=O)C(=O)N2CCCn2ccnc2)c1 (centres undefined)	0.598	11.9	1.4	12.5	0.9	i	-4.1
Cc1ccc(NC(=O)c2cc(S(=O)(=O)N3CCCCC3)c[nH]2)cc1C	0.719	-4.4	0.5	1.6	-1.3	i	-3.0
C/C(CC(=O)NC1CCCC1)=N\NC(=O)C1CCCCC1	.	.	.	.	-7.2	i	-4.5
Cc1[nH]c(=O)[nH]c(=O)c1S(=O)(=O)Nc1ccc(Cl)c([N+](=O)[O-])c1	0.651	3.1	-0.8	5.2	0.8	i	-3.8
COc1ccc([N+](=O)[O-])cc1NC(=O)CC(c1ccccc1)c1ccccc1	0.712	-4.7	-2.5	6.5	1.7	i	2.8
C=CCNC(=O)/C(=C/c1cccc([N+](=O)[O-])c1)NC(=O)c1ccccc1	0.655	26.9	-1.3	2.3	3.9	.	-5.5
CC1=C/C(=C(/c2ccc(O)c(C)c2)c2ccccc2S(=O)(=O)O)C=CC1=O	.	.	3.4	.	7.8	i	7.0
O=c1c(CN2CCN(c3cccc(Cl)c3)CC2)coc2c(Cl)cc(Cl)cc12	0.681	.	4.2	2.0	-0.7	i	5.1
CN(C(=O)c1cccc(NC(=O)Cc2ccc(NC(=O)C3CCCN(C(=O)CCc4ccccc4)C3)cc2)c1)C1CC1 (centres undefined)	0.694	.	.	-1.6	-1.6	i	-1.8
COCCNc1cc(C)nc2ccccc12	0.716	.	-8.0	2.6	-1.1	.	7.2
CC(=O)Nc1ccc(SCC(=O)c2cc(C)n(-c3ccccc3)c2C)cc1	.	98.9*	6.1	1.4	-0.2	.	-2.8
COc1cc(CNCc2ccccn2)ccc1OCc1c(Cl)cccc1Cl	0.659	2.2	4.9	2.9	0.6	i	4.3
COC(=O)C1=C(C(=O)c2ccc(C)cc2)C(c2ccc(O)c(OC)c2)n2nnnc2N1 (centres undefined)	0.739	28.4	2.7	-2.6	-4.0	.	17.2
Cc1ccc(CNC(=O)c2sc3nc4c(c(C(F)(F)F)c3c2N)CCC4)cc1	0.652	-6.4	-9.0	0.4	2.2	.	-0.2
Cc1ccc(C(=O)NCCc2csc(-c3cccnc3)n2)cc1	0.627	2.0	-0.2	0.6	0.8	i	-15.1
CCCN(CC(=O)Nc1ccc(C(N)=O)cc1)CC(=O)Nc1ccc(F)c(F)c1F	0.648	.	2.6	-0.1	1.2	i	13.1
COc1ccc(CN(C)C(=O)c2cnc(OC)cc2C(F)(F)F)c(OC)c1	0.658	2.6	4.4	0.7	0.1	i	-7.9
Cc1cc(Br)ccc1NC(=O)CN(C)C(=O)C1=COCCO1	0.693	-2.5	-0.6	2.4	-5.2	i	0.8
COc1ccc(C(=O)Nc2ccccc2C(=O)NC(C(=O)NCc2ccco2)C(C)C)cc1 (centres undefined)	0.739	.	-2.4	-8.0	-5.1	.	-7.4
OCCOc1ccc(CN2CCCC(N3CCN(c4ccc(F)cc4)CC3)C2)cc1 (centres undefined)	0.651	.	0.8	1.8	1.3	i	6.8

Three of the compounds above, in markdown.
| SMILES | E coli growth | ALR H2O2 inh | LANA-H2B inh | UCH37 DUB inh | HNF4A DNA FP | FGF22 binding | Beta2AR agonist |
| --- | --- | --- | --- | --- | --- | --- | --- |
| C/C(CC(=O)NC1CCCC1)=N\NC(=O)C1CCCCC1 | . | . | . | . | -7.2 | i | -4.5 |
| Cc1[nH]c(=O)[nH]c(=O)c1S(=O)(=O)Nc1ccc(Cl)c([N+](=O)[O-])c1 | 0.651 | 3.1 | -0.8 | 5.2 | 0.8 | i | -3.8 |
| COc1ccc([N+](=O)[O-])cc1NC(=O)CC(c1ccccc1)c1ccccc1 | 0.712 | -4.7 | -2.5 | 6.5 | 1.7 | i | 2.8 |

(listing goes on)
SMILES	E coli growth	ALR H2O2 inh	LANA-H2B inh	UCH37 DUB inh	HNF4A DNA FP	FGF22 binding	Beta2AR agonist
CCOC(=O)c1[nH]c2ccc(OC)cc2c1NS(=O)(=O)c1ccc(Cl)s1	0.644	66.5	4.7	2.5	1.6	.	-5.0
C=CCSc1nnc(-c2ccc([N+](=O)[O-])cc2)o1	0.671	-28.5	12.1	5.6	-4.5	i	0.9
C/C(CC(=O)Nc1ccc2c(c1)OCO2)=N\NC(=O)c1ccc(N)cc1	.	9.0	-1.0	.	8.6	i	-4.8
Cc1cc(-c2nnc3n2N=C(C(C)(C)C)CS3)n[nH]1	0.701	-0.8	0.8	0.6	2.5	.	0.1
COc1ccc(CCNC(=O)c2cc(-c3ccncc3)nc3c(Cl)cccc23)cc1OC	0.695	-10.6	2.6	6.4	4.0	i	6.8
Cc1nc(C)c(C)nc1C	0.669	.	6.9	-1.0	.	.	.
O=C(NCc1ccccn1)Nc1ccc(F)cc1F	0.65	-10.0	-0.4	-0.4	1.6	i	5.8
Cc1ccc(C)c(S(=O)(=O)n2cnc3ccccc32)c1	0.647	-10.0	5.7	2.2	1.2	.	5.4
O=C(/C=C/c1ccco1)N1CCN(C/C=C/c2ccccc2)CC1	0.693	.	-4.3	-0.2	-2.1	i	-1.4
O=S(=O)(O)c1nc2ccccc2[nH]1	0.671	-8.1	-4.4	3.3	2.7	i	0.8
Cc1ccc(NC(=O)CCCN2C(=O)NC(C)(C)C2=O)cc1	0.698	0.5	2.3	2.8	0.8	i	0.3
O=C(NCc1nc(-c2ccc(C(F)(F)F)cc2)no1)Nc1ccc(OC(F)(F)F)cc1	0.627	.	0.8	2.3	0.8	.	6.7
O=C(O)c1ccc(-c2nnc(-c3ccc([N+](=O)[O-])cc3)o2)cc1	0.679	.	-2.5	3.7	2.8	i	9.0
CC(C)(C)[C@H]1COC(=O)[C@@H](Cc2ccc(F)cc2)C/C=C\C[C@@H](CC(=O)N[C@H](CO)Cc2ccccc2)C(=O)N1	.	1.8	3.6	3.5	0.2	i	-9.0
CCOC(=O)CC1C(=O)NCCN1c1nc2c(C)cccn2c(=O)c1/C=C1\SC(=S)N(C(C)CC)C1=O (centres undefined)	0.706	-3.4	-45.6	10.8	.	.	.
CC(C)N1C[C@@]23C=C[C@@H](O2)C(C(=O)OCc2ccccc2)[C@H]3C1=O (some centres undefined)	0.758	1.2	4.3	-0.2	0.4	.	0.5
Cc1ccsc1C(=O)Nc1cccc(S(=O)(=O)N(C)C)c1	0.621	.	2.2	1.7	0.8	.	-24.7
CCCN1C2CCCC1CC(NC(=O)c1ccccc1Br)C2 (centres undefined)	0.686	-7.6	3.1	-1.7	1.1	i	2.4
COCCN(C(=O)CCC(=O)Nc1cc(C)on1)C(C(=O)NC1CCCC1)c1ccccc1C (centres undefined)	0.711	-1.5	-2.4	4.4	3.4	i	3.2
COc1ccc(CN2C(=O)NC3(CCCc4ccccc43)C2=O)cc1F (centres undefined)	0.696	-0.6	3.7	3.2	2.1	i	0.3
COc1ccc(C(=O)NCCn2ccc3ccccc32)cc1OC	0.693	0.3	4.6	-4.5	1.5	i	45.1*
CO/N=C(/CN1CCCCC1)c1ccc(Cl)cc1	.	-10.9	4.6	.	7.0	i	-2.1
CCSc1nnc(CNc2ccc(C)cc2)n1C	0.657	56.5	4.0	3.7	1.3	i	5.4
COc1ccc2cc(C3(C)NC(=O)N(CC(=O)N4CCCCC4)C3=O)ccc2c1 (centres undefined)	0.69	-4.3	-0.9	-6.7	15.2	i	0.0
O=C1c2ccc(Br)cc2C(=O)N1c1ccc(Cl)cn1	0.711	-10.2	-4.2	6.0	-1.0	i	-2.3
O=C(C[C@@H]1C/C=C\C[C@@H](Cc2ccc(F)cc2)C(=O)OC[C@H]2CCCN2C1=O)NCCO	.	-5.9	-2.2	-0.2	-4.7	i	4.1
COCCNC(=O)C1(C(F)(F)F)CC(CCCO)CCCO1 (centres undefined)	0.689	-1.3	3.1	-2.5	0.9	i	-7.0
Cn1cc(Br)c(-c2cccc(N3C(=O)CCCC3=O)c2)n1	0.702	-3.2	-2.6	1.6	4.4	i	0.1
CCOC(=O)C1(CCc2ccccc2)CCN(Cc2cccc3nccnc23)CC1	0.642	-0.7	-3.6	-1.0	0.1	i	-3.5
CCN(CCCCN1C(=O)c2ccccc2C1=O)c1ccc2c(c1)C(=O)N(C)C2=O	0.707	-4.5	1.1	-16.7	-14.2	.	-0.2
CCc1ccc(OCc2nnc(SCCN3CCOCC3)n2C)cc1	0.68	-17.0	-1.5	0.4	3.8	.	6.3
CCCC12CN3CC(C)(CN(C1)C3c1ccc([N+](=O)[O-])o1)C2=O (centres undefined)	0.666	-10.6	-0.6	6.8	6.8	i	-8.2
CCn1c(SCc2nc(-c3ccc(OC)c(OC)c3)no2)nnc1-c1cccs1	0.7	46.9	4.4	-2.3	-4.5	i	-24.3
CSc1ccccc1NC(=O)CNCCCN1CCOCC1	0.703	-4.8	0.1	5.3	-2.0	i	8.1
COc1ccc(S(=O)(=O)N2CCC(C(=O)N[C@H](C(=O)N3CCCC3)C(C)C)CC2)cc1	0.709	-2.0	-4.6	-0.8	1.3	i	3.1
O=C(O)c1ccc(N/C(=N\S(=O)(=O)c2ccc(Cl)cc2)c2ccccc2)cc1	.	-1.2	-0.4	.	4.2	i	-0.7

Compound activity as filed in PubChem BioAssay.
